SARS PLP yeast: inhibitors of SARS-CoV papain-like protease in yeast | S. cerevisiae expressing SARS-CoV PLpro, growth rescue; control for the full effect not named in the record | Potency, µM (titrated, usually from 32.9 µM), for the others: at the highest dose activity, positive = growth rescue | 330,000 compounds, 0.19% hits | AID 485353; active means well fitted rising curve with a large enough effect; inconclusive means small, poorly fitted or top-dose-only effect; inactive means no such curve, though single readings can be large or run the other way; note: 0% is about no effect; nearly all actives have a fitted effect of over 55% in size; growth read by luminescence after 48 h
Lassa entry inh: blocks Lassa virus binding to or entry into cells. Lassa virus pseudotype entry inhibition, cell reporter; control for the full effect not named in the record. Potency, µM (top dose mostly 37.9 µM), without a hit: top-dose activity change, negative = inhibition, hits mostly inhibitors. 300,000 compounds, 1.2% hits. AID 540256; active means well fitted inhibition curve with a large enough effect; inconclusive means small, poorly fitted or top-dose-only effect, or effect the other way; inactive means flat fitted curve, though single readings scatter; tested in HEK293 cells; note: % is set by controls: 0 for no effect and ±100 for the full control effect; nearly all actives have a fitted effect of over 50% in size; luciferase read-out
RE007 growth inh: less growth of the S. pombe RE007 Vpr strain; S. pombe RE007 Vpr strain, BacTiter-Glo ATP luminescence, 24 h; control for the full effect not named in the record; Potency, µM (doses to about 92.2 µM), without a hit: at the top dose activity change, negative = less growth; AID 651644; 360,000 compounds, 0.21% hits; active = well fitted falling curve with a large enough effect; inconclusive = small, poorly fitted or top-dose-only effect; inactive = no such curve, though single readings can be large or run the other way;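 note: % is set by controls: 0 for no effect and ±100 for the full control effect; nearly all actives have a fitted effect of over 50% in size; the assay follows cell death caused by Vpr and the record does not say whether a fall means rescue or toxicity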
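Fission yeast RE007 carrying one integrated HIV-1 vpr copy, seeded at OD 0.01 in PMG+AL medium with 23 nL pinned compound. Grown 24 h at 30 degrees; viability read by BacTiter-Glo luminescence after 5 min.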
2A StopGo: FMDV 2A StopGo reporter, luciferase signal; human cells with a luciferase reporter of 2A StopGo recoding; control for the full effect not named in the record; AID 1159524; Potency, µM (doses to about 57.9 µM), for the others: top-dose signal change, negative = less light; 410,000 compounds, 1.2% hits; active = well fitted falling curve with a large enough effect; inconclusive = small, poorly fitted or top-dose-only effect; inactive = no such curve, though single readings can be large or run the other way; tested in HEK293T cells; note: % is set by controls: 0 for no effect and ±100 for the full control effect; nearly all actives have a fitted effect of over 45% in size; luciferase light after 4 h
NS1 inh: influenza NS1 inhibition; Potency, µM (highest dose often 46.1 µM), for inactives: at the top dose activity, positive = more growth; S. cerevisiae slowed by influenza A NS1, growth recovery by OD600; 270,000 compounds, 0.4% hits; AID 2326; active means well fitted rising curve with a large enough effect; inconclusive means small, poorly fitted or top-dose-only effect; inactive means no such curve, though single readings can be large or run the other way; note: nearly all actives have a fitted effect of over 50% in size
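Compounds were scored for reversing the slow growth caused by influenza A NS1 in S. cerevisiae, measured by optical density at 600 nm. Assay medium contained 2% galactose at pH 6.0; NS1-free yeast of the same strain were the positive control.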
Cruzain Triton: inhibitors of Trypanosoma cruzi cruzain with detergent; 200,000 compounds, 0.43% hits; AID 1478; purified cruzain, Z-FR-AMC fluorescence, 0.01% Triton; Potency, µM, inactives show max response, negative = inhibition, hits mostly inhibitors; P25779;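 note: plate controls were neutral wells for no effect and buffer without enzyme for full effect; nearly all actives have a fitted effect of over 40% in size; top concentration of the series not given in the record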
Target sequence (P25779 123-467 limits assumed): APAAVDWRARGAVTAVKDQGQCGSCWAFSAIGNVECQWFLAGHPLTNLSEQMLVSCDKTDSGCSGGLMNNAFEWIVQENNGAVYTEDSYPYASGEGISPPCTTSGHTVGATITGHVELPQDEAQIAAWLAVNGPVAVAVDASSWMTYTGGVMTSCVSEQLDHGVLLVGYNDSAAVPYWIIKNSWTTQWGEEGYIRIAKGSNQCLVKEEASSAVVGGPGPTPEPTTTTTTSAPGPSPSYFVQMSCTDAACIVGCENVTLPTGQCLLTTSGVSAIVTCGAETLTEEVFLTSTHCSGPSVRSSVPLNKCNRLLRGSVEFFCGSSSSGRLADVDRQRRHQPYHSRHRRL
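Enzyme 1.5 nM, Z-FR-AMC 2 uM, NaOAc 100 mM pH 5.5, DTT 5 mM, Triton X-100 0.01%; 15 min RT compound preincubation; kinetic ex360/em450, 60 s delta.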
Cruzain noTriton: blocks cruzain activity in detergent-free assay; P25779; purified cruzain, Z-FR-AMC fluorescence, no detergent; Potency, µM, without a hit: max response, negative = inhibition, usual class: inhibitors; 200,000 compounds, 2.3% hits; AID 1476;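 note: plate controls were enzyme without inhibitor for no effect and buffer without enzyme for full effect; nearly all actives have a fitted effect of over 40% in size; top concentration of the series not given in the record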
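Detergent-free condition (0.00005% Triton X-100) in acetate buffer pH 5.5 with DTT. 1.5 nM enzyme and compound were pre-mixed 15 min, then 2 uM Z-FR-AMC substrate added; reaction progress from fluorescence change between first and third reads (60 s).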
Marburg entry inh: blocks Marburg virus binding to or entry into cells. Marburg virus pseudotyped entry inhibition, cell reporter; control for the full effect not named in the record; about a third of the inactives were read at about 46 µM. Potency, µM (doses to about 37.8 µM), for inactives: top-dose activity change, negative = inhibition, most hits filed as inhibitors. 300,000 compounds, 1.8% hits; active = well fitted inhibition curve with a large enough effect; inconclusive = small, poorly fitted or top-dose-only effect, or effect the other way; inactive = flat fitted curve, though single readings scatter; tested in HEK293 cells; about a fifth of its hits are not listed in these tables; note: % is set by controls: 0 for no effect and ±100 for the full control effect; luciferase read-out
* marks the source's active call; other numbers are inactive results; [ ] = dose if it differs, or a comment. Unless noted, calls come from the whole dose curve; as a rule, active = well fitted curve in the direction sought with a large enough effect; inconclusive = small, poorly fitted or top-dose-only effect, or another doubt; inactive = no such curve, though single readings can be large; an effect the other way counts as inactive or inconclusive. Potency is the fitted concentration of half-maximal effect.

Start of the data: the first 3 compounds, ahead of the listing:
Results for COc1cccc(-c2noc(-c3cc4ccccc4oc3=O)n2)c1OC ?
Lassa entry inh: 13%[46.1 µM]; 2A StopGo: 30%; Cruzain Triton: -1.2%; Cruzain noTriton: -21%

What do the screens show for `Cc1ccc(OCc2cc(C(=O)N3CCN(C4CCCCC4)CC3)no2)cc1C`?
SARS PLP yeast: -3%; RE007 growth inh: 1%; 2A StopGo: -1%; NS1 inh: -19%

How did Cc1ccc(C)c(N2N=C(C(=O)Nc3ccccc3N3CCOCC3)CCC2=O)c1 do in these assays?
SARS PLP yeast: -1%; Lassa entry inh: -25%; RE007 growth inh: 5%; 2A StopGo: inconclusive; Marburg entry inh: inconclusive

The listing, from the first entry:
Results for COc1cccc(-c2noc(-c3cc4ccccc4oc3=O)n2)c1OC ?
Lassa entry inh: 13%[46.1 µM]; 2A StopGo: 30%; Cruzain Triton: -1.2%; Cruzain noTriton: -21%

What do the screens show for `Cc1ccc(OCc2cc(C(=O)N3CCN(C4CCCCC4)CC3)no2)cc1C`?
SARS PLP yeast: -3%; RE007 growth inh: 1%; 2A StopGo: -1%; NS1 inh: -19%

How did Cc1ccc(C)c(N2N=C(C(=O)Nc3ccccc3N3CCOCC3)CCC2=O)c1 do in these assays?
SARS PLP yeast: -1%; Lassa entry inh: -25%; RE007 growth inh: 5%; 2A StopGo: inconclusive; Marburg entry inh: inconclusive

How did CC(C)OCCCNC(=O)c1ccc(-n2c(-c3ccccc3)cc3c2CCCC3)cc1 do in these assays?
Lassa entry inh: inconclusive; 2A StopGo: 0%; Cruzain Triton: -6.2%; Cruzain noTriton: -22%

How did CCOC(=O)c1c(NC(=O)CC2Nc3cc(C)c(C)cc3NC2=O)sc(C)c1C (stereo not given) do in these assays?
SARS PLP yeast: 7%; Lassa entry inh: -25%; RE007 growth inh: 13%; NS1 inh: -3%; Cruzain Triton: -0.7%; Cruzain noTriton: -2%; Marburg entry inh: -6%

What do the screens show for `CCOP(=O)(O)c1ccccc1OCCOCCOc1ccccc1P(=O)(O)OCC`?
SARS PLP yeast: 1%; Lassa entry inh: 1%; RE007 growth inh: 0%; NS1 inh: -2%; Cruzain Triton: 4.0%; Cruzain noTriton: -7%; Marburg entry inh: 1%

Results for O=C(c1ccccc1)c1cc(-c2ccccc2)on1 ?
SARS PLP yeast: -6%; Lassa entry inh: -17%; RE007 growth inh: inconclusive; 2A StopGo: -43%; NS1 inh: -23%; Cruzain Triton: -2.5%; Cruzain noTriton: -2%; Marburg entry inh: 0%

What do the screens show for `COC(=O)c1ccc(C(=O)OC)c(NC(=O)C2CCCO2)c1` (stereo not given)?
SARS PLP yeast: 5%; Lassa entry inh: 13%[46.1 µM]; RE007 growth inh: -28%; 2A StopGo: 0%; NS1 inh: -13%; Marburg entry inh: -1%[46.1 µM]

How did COc1cc(Cl)ccc1NC(=O)COc1ccccc1C(=O)NN do in these assays?
SARS PLP yeast: -4%; RE007 growth inh: -9%; 2A StopGo: -15%; NS1 inh: 12%

What do the screens show for `CC(C)c1ccccc1OCCNC(=O)c1cncc(Br)c1`?
SARS PLP yeast: -2%; Lassa entry inh: inconclusive; RE007 growth inh: 29%; 2A StopGo: inconclusive; NS1 inh: -10%; Marburg entry inh: -35%

How did COc1ccc(C)cc1NC(=O)c1cc(S(=O)(=O)N2CCCCC2)c[nH]1 do in these assays?
Lassa entry inh: 0%[46.1 µM]; 2A StopGo: -16%; Cruzain Triton: -3.6%; Cruzain noTriton: 4%

What do the screens show for `Cc1ccc(F)c(N=Cc2c(O)c3ccccc3oc2=O)c1`?
SARS PLP yeast: 12%; RE007 growth inh: 1%; 2A StopGo: 24%; NS1 inh: 3%

How did CCC(C)(C)NC(=O)CN(C(=O)CNS(=O)(=O)c1ccccc1)c1ccc2c(c1)OCCO2 do in these assays?
SARS PLP yeast: -2%; RE007 growth inh: 0%; 2A StopGo: 11%; NS1 inh: -2%; Marburg entry inh: -4%[46.1 µM]

Results for Cc1cc(N=Nc2ccc(Cl)cc2)cc(CN2CCOCC2)c1O ?
SARS PLP yeast: -5%; Lassa entry inh: -12%; RE007 growth inh: -21%; 2A StopGo: -6%; NS1 inh: 2%; Marburg entry inh: -15%

What do the screens show for `Cc1cc(C)nc(NC(=O)c2ccc(Br)s2)n1`?
SARS PLP yeast: -2%; RE007 growth inh: -5%; 2A StopGo: -2%; NS1 inh: -5%

How did Cc1ccc(OCc2n[nH]c(=S)n2N)cc1C do in these assays?
SARS PLP yeast: 1%; Lassa entry inh: 14%; RE007 growth inh: 8%; 2A StopGo: 3%; Marburg entry inh: inconclusive

Results for COCCCN1C2=C(C(=O)CC(C)(C)C2)C(c2ccc(OC)c(OC)c2)C2=C1CC(C)(C)CC2=O ?
SARS PLP yeast: 2%; RE007 growth inh: -2%; 2A StopGo: 3%; NS1 inh: 8%

Results for CCc1cccc(C)c1NC(=O)Cn1c(=O)n(-c2ccc(C)cc2)c(=O)c2c1cnn2C ?
Lassa entry inh: inconclusive; 2A StopGo: -20%; Cruzain Triton: 0.0%; Cruzain noTriton: 9%; Marburg entry inh: 26%[46.1 µM]

Results for CC(C)NC(=O)COC(=O)c1ccccc1Oc1ccccc1 ?
SARS PLP yeast: 2%; Lassa entry inh: 0%; RE007 growth inh: 9%; 2A StopGo: -16%; NS1 inh: -104%; Cruzain Triton: 1.2%; Cruzain noTriton: 0%; Marburg entry inh: 11%[46.1 µM]

Results for CC1CCN(CCCNC(=O)c2ccc(CS(=O)(=O)Cc3ccc(Cl)cc3)o2)CC1 ?
SARS PLP yeast: 0%; RE007 growth inh: 3%; 2A StopGo: -14%; NS1 inh: -2%

Results for O=C(O)C1Sc2[nH]c(=O)sc2C2c3ccc(O)cc3OC(=O)C12 (stereo not given) ?
SARS PLP yeast: 2%; Lassa entry inh: 4%; RE007 growth inh: 2%; 2A StopGo: -14%; NS1 inh: 3%; Marburg entry inh: -2%[46.1 µM]

What do the screens show for `O=C(O)c1cc(S(=O)(=O)N2CCOCC2)ccc1N1CCCCC1`?
SARS PLP yeast: -1%; Lassa entry inh: -2%; RE007 growth inh: 15%; 2A StopGo: -1%; NS1 inh: 7%; Marburg entry inh: 23%[14.2 µM]

How did CC(C)(C)C(=O)Nc1nc2cc3c(cc2s1)OCO3 do in these assays?
SARS PLP yeast: 1%; RE007 growth inh: 0%; 2A StopGo: 0%; NS1 inh: 3%

What do the screens show for `O=C(CN1C(=O)NC2(CCCC2)C1=O)OCCOc1ccccc1`?
SARS PLP yeast: 0%; Lassa entry inh: 23%[46.1 µM]; RE007 growth inh: 11%; 2A StopGo: 21%; NS1 inh: 1%; Marburg entry inh: inconclusive

How did COc1ccccc1N1CCN(S(=O)(=O)c2cc3c(cc2C)NC(=O)CO3)CC1 do in these assays?
SARS PLP yeast: -6%; RE007 growth inh: 0%; 2A StopGo: -11%; NS1 inh: -4%

Results for Brc1ccc(-c2nc3ncccn3c2Nc2ccc3c(c2)OCCO3)o1 ?
SARS PLP yeast: 10%; Lassa entry inh: -3%; RE007 growth inh: 6%; 2A StopGo: 3%; NS1 inh: 7%; Cruzain Triton: -2.5%; Cruzain noTriton: -11%; Marburg entry inh: -8%[46.1 µM]

How did CCCN1CCN(C(=O)Cn2cnc3ccc(S(=O)(=O)N4CCC(C)CC4)cc3c2=O)CC1 do in these assays?
SARS PLP yeast: -1%; Lassa entry inh: 10%; RE007 growth inh: -7%; 2A StopGo: -12%; Marburg entry inh: 3%[46.1 µM]

How did COc1cc(C2CC(=O)n3c(nc4ccccc43)S2)cc(OC)c1OC (stereo not given) do in these assays?
SARS PLP yeast: -14%; NS1 inh: 4%; Cruzain Triton: -5.0%; Cruzain noTriton: 8%

How did CN1C(C(=O)NCc2cccc(Br)c2)CC2Cn3c(nc4ccccc43)C21 (stereo not given) do in these assays?
SARS PLP yeast: 0%; RE007 growth inh: -16%; 2A StopGo: -17%; NS1 inh: 0%

What do the screens show for `O=C(NCc1nc2ccccc2[nH]1)C1=C[C@H](c2ccccc2)C[C@H](OCc2ccc(CO)cc2)O1`?
SARS PLP yeast: 1%; RE007 growth inh: 8%; 2A StopGo: -7%; NS1 inh: 6%

How did C/C(=N/NC(=O)c1nnn(-c2nonc2N)c1COc1ccccc1)c1ccc(O)cc1 do in these assays?
SARS PLP yeast: 6%; RE007 growth inh: 22%; 2A StopGo: -2%; NS1 inh: 13%

What do the screens show for `CN1C(=O)c2cccc3c(S(=O)(=O)N4CCCC4C(=O)O)ccc1c23` (stereo not given)?
SARS PLP yeast: 3%; Lassa entry inh: -3%; RE007 growth inh: 2%; 2A StopGo: -12%; NS1 inh: 1%; Marburg entry inh: 23%

Results for COCCCn1c(O)c(/C=C2\N=C(C#N)C(=Nc3ccc(C)cc3)O2)sc1=S ?
SARS PLP yeast: -1%; Lassa entry inh: inconclusive; RE007 growth inh: -5%; 2A StopGo: inconclusive; NS1 inh: 4%; Marburg entry inh: inconclusive

What do the screens show for `CCc1cc(C(=O)Nc2ccccc2N2CCOCC2)sc1C`?
SARS PLP yeast: -2%; Lassa entry inh: 1%; RE007 growth inh: 17%; 2A StopGo: 1%; Marburg entry inh: 3%

Results for Cc1csc(NC(=O)c2cccnc2Cl)n1 ?
Lassa entry inh: 13%; RE007 growth inh: -1%; 2A StopGo: 0%; Marburg entry inh: inconclusive

Results for COC(=O)C1C2c3ccccc3OC1(C)N=c1s/c(=C/c3cnn(C)c3)c(=O)n12 (stereo not given) ?
SARS PLP yeast: 4%; Lassa entry inh: -5%; RE007 growth inh: -9%; 2A StopGo: -24%; NS1 inh: -6%; Cruzain Triton: -10%; Cruzain noTriton: inconclusive; Marburg entry inh: 10%

What do the screens show for `CC(C)Oc1cccc(C(=O)C2CCCN(C(=O)c3ccccn3)C2)c1` (stereo not given)?
SARS PLP yeast: 3%; RE007 growth inh: 1%; 2A StopGo: -20%; NS1 inh: inconclusive
